B2AR ag = human beta-2 adrenergic receptor agonism by FAP; Am2.2-beta2AR cells, FAP receptor internalization, flow cytometry; reference of the scale not given here; 340,000 compounds, 0.43% hits; P07550; response, % (no concentration beside the values);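 active = response above a set limit, near 3 SD of response in nonfluorescent compounds, cut at about 42% in these data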;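 also: stock transfer was 100 nL into about 11 µL; a reference agonist was the positive control; negative values mostly stem from fluorescent compounds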
UCH37 inh = human UCH37 deubiquitinating enzyme inhibition; inhibition, % (concentration not given with the values); AID 588478; Q9Y5K5; purified proteasome/UCH37, Ub-AMC cleavage fluorescence; 330,000 compounds, 0.33% hits;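 active = mean of two replicates above 20%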;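 also: 0% = compound-free wells with enzyme and 100% = wells lacking proteasome; stock transfer was 100 nL into about 20 µL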
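Signal – fluorescence, ex 355 nm, em 460 nm · System – Proteasome-bound UCH37 · Input – 0.15 nM proteasome as dispensed · Timing – 30 min preincubation with enzyme, 25 min cleavage at room temperature · Read-out basis – percent inhibition of cleavage signal versus uninhibited and no-proteasome wells · Medium – Tris-HCl pH 7.4 with ATP-MgCl2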
LANA-H2A inh = blocks KSHV LANA binding to histone H2A/H2B. 320,000 compounds, 0.6% hits. Q9QR71. cell-free LANA-H2A/H2B peptide, fluorescence polarization. inhibition, % (test concentration not listed); in the data active = inhibition mostly above about 10%, no sharp cut-off; inactive = mostly below about 6.7%;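 also: stock transfer was 7.5 nL into about 10 µL; 0% = median of vehicle wells and 100% = median of positive control wells; one replicate is shown; the record names a cut of 25% in any replicate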
Target sequence (Q9QR71 whole entry, looked up): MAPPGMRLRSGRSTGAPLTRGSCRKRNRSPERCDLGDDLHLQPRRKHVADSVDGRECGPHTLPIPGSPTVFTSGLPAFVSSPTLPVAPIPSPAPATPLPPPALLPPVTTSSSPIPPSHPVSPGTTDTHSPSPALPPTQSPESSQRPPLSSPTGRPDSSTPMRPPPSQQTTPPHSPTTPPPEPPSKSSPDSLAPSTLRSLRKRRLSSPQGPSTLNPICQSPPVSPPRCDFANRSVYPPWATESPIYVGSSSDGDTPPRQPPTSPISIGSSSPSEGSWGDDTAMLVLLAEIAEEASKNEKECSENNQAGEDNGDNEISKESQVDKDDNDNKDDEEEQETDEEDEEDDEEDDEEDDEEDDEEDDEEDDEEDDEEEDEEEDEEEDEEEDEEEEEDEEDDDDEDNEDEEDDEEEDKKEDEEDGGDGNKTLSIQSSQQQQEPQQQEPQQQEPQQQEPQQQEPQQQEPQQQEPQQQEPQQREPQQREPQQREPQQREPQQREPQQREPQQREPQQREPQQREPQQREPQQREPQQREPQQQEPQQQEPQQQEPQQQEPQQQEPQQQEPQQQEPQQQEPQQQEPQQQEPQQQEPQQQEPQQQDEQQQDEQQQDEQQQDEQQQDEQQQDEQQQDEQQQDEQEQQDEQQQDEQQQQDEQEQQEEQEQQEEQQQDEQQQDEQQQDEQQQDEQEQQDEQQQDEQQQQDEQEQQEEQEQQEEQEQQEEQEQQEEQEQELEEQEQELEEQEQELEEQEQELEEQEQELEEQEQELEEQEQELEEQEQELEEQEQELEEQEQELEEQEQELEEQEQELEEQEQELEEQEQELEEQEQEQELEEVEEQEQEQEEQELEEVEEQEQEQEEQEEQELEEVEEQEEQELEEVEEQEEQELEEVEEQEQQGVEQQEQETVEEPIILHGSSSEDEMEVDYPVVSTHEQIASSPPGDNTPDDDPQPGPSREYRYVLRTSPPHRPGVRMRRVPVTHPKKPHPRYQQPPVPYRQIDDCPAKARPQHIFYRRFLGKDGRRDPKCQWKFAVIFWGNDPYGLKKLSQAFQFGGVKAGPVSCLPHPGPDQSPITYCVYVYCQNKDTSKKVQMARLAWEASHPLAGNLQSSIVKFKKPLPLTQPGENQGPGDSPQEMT
Vif TR-FRET = HIV-1 Vif–A3G interaction blockers – biochemical, TR-FRET, GST-Vif 1-94, biotin-A3G peptide, dose response retest, primary screen (AID 1117319); TR-FRET GST-Vif / biotin-A3G peptide binding; higher % means a stronger effect; test concentration not given here; strong numbers were not always called active; 260,000 compounds, 0.57% hits; inhibition, %; hits with a dose series show IC50 in µM;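 active = above the screen mean plus three standard deviations and confirmed in dose response; inconclusive = results disagree or hit not tested in dose response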;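 also: Vif residues 1-94 fused to GST binding biotinylated APOBEC3G peptide 110-148; 0% = full assay without inhibitor and 100% = GST in place of GST-Vif; retest series ran down from 100 µM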
Ecoli growth = blocks Escherichia coli growth. OD600, 23 h; active compounds read low. OD600 absorbance (no concentration beside the values). 330,000 compounds, 0.21% hits. AID 1053175;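 active = OD600 absorbance below the run mean of sample wells minus 3.6 SD, in any replicate, cut at about 0.56 in these data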;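 also: stock transfer was 300 nL into about 60 µL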
HNF4A DNA FP = change in binding of human HNF4 alpha to DNA; HNF4a-FITC DNA binding, fluorescence polarization, 1 h; activity change, % at 10 µM; 360,000 compounds, 0.3% hits; AID 1224865; in the data active = activity change above about 30%, passing the limit was not always enough;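 also: controls were the assay level and a saturating level of protein; the project sought stronger binding though the title names inhibitors; some compounds called inactive have numbers as strong as hits; positive values seem to mean higher polarization but the record does not say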
A1 inh = inhibitors of the anti-apoptotic protein A1, read as caspase activation; MEF A1-2A-BIM cells, Caspase-Glo 3/7 luminescence, 3 h; percent of clofoctol response, vehicle zero; caspase activation, % (test concentration not listed); 330,000 compounds, 0.066% hits;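 active = over half of replicate activation scores above 10%, or exactly half above 10 with the replicate mean above 10; inconclusive = replicate mean below 10 yet half the replicates above 10; inactive = over half of replicates below 10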;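 also: wells of about 30 µL received 50 nL stock; many hits fall short of the cut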
The depositor's hits bear a star; i = inactive; ? = inconclusive; / = no result given.

Compound	Ecoli growth	B2AR ag	A1 inh	Vif TR-FRET	HNF4A DNA FP	UCH37 inh	LANA-H2A inh
O=C(O)Cn1c(O)c(C2=c3ccccc3=NC2=O)sc1=O	0.68	5	-0.5	0%	36	0.4	2.8
CCOc1ccc(CCNC(=O)C2CC(=O)N(c3ccc4c(c3)OCCO4)C2)cc1OCC (stereo unspecified)	0.7	-4	1.2	4%	-1.1	-1.8	-0.3
Cc1c(NC(=O)c2nn3c(C(F)(F)F)cc(-c4ccccc4)nc3c2Cl)c(=O)n(-c2ccccc2)n1C	0.72	-15	0.3	/	3.1	5.4	-2.2
O=S(=O)(Nc1ccc(-n2cccc2)cc1)c1ccc(Cl)cc1Cl	0.72	0	0.3	2%	-2.7	3.1	2.1
CN(CC(=O)Nc1ccc(F)cc1)C(=O)COC(=O)CNC(=O)c1ccc(Cl)cc1Cl	0.67	1	0.3	5%	-2.5	0.3	-1.4
CCc1sc(C(=O)N2CCN(CC(=O)Nc3cccc(F)c3)CC2)cc1C	0.68	-2	-1.1	1%	8.7	2.5	-5.8
CCc1nc(SCC(=O)N2CCCCCC2)c2c(=O)n(C)c(=O)n(C)c2n1	0.65	5	0.9	/	2.9	1.7	0.7
Cn1c(Cl)c(/C=N/OC(=O)C(C)(C)C)c2ccccc21	/	-5	-0.7	7%	6.3	/	-7.3
COc1cc(C(C)=O)ccc1OC(C)C(=O)Nc1ccc(S(=O)(=O)N2CCCC2)cc1 (stereo unspecified)	0.68	-6	0.7	?	1.9	-1.0	4.6
O=C(O)C(Oc1ccc2cc(-c3ccc(Cl)cc3)c(=O)oc2c1)c1ccccc1 (stereo unspecified)	0.66	16	-0.7	/	2.2	i	-1.0
COc1ccc(CNC(=O)CCS(=O)(=O)c2cccc3nonc23)cc1	0.7	3	-0.1	3%	2.8	0.4	4.3
CN(Cc1c(C(=O)N/N=C/c2cccc(F)c2)nnn1-c1nonc1N)C1CCCCC1	/	-4	0.5	/	5.9	/	1.2
CCOc1ccc(OCC(=O)N2CCC3(CC2)CC(=O)c2ccccc2O3)cc1	0.65	4	1.3	0%	-2.5	-19	3.0
COc1ccc(/C=C/C(=O)Nc2cccc(S(=O)(=O)N3CCOCC3)c2)cc1OC	0.72	7	/	0%	0.1	-13	/
Cc1ccc(N2CCN(S(=O)(=O)N3CCCCCC3)CC2)cc1Cl	0.66	-4	0.8	8%	4.6	1.0	-2.2
COc1ccc(C2=CC3=C(Br)C(=O)C(C)(OC(=O)c4cccs4)C(=O)C3=CO2)cc1 (stereo unspecified)	0.67	-1	0.4	/	-5.5	1.9	-1.1
CCOC(=O)C1(CC)NC(c2ccc(OC)c(OC)c2)C2C(=O)N(c3cccc(C(C)=O)c3)C(=O)C21 (stereo unspecified)	0.69	-5	-1.0	/	0.1	-0.9	7.9
CCc1nnc(NC(=O)CSc2nnc(C3CCCCC3)n2-c2cccc(Cl)c2)s1	0.71	0	1.3	16%	-0.7	2.0	-3.6
O=C(Cc1ccccc1)NCCSCc1ccccc1	0.72	0	0.0	1%	1.8	1.3	3.9
CCOC(=O)N1CCN(CC(=O)Nc2c(C(=O)OC)[nH]c3ccccc23)CC1	0.66	8	1.2	-1%	-1.9	-16	-2.5
CC(NC(=O)Cn1cnc([N+](=O)[O-])n1)c1ccccc1 (stereo unspecified)	0.74	27	0.2	-5%	-2.1	4.7	1.8
COc1ccc(CC2(CO)CCN(Cc3cnn(C)c3)CC2)cc1	0.68	9	/	/	-4.4	6.6	/
O=C(CCN=C1NS(=O)(=O)c2ccccc21)OCc1ccccc1	0.65	11	0.8	-2%	-0.7	-0.4	/
COc1cc(C(=S)N2CCOCC2)ccc1OS(=O)(=O)c1ccc(NC(C)=O)cc1	0.69	2	-0.2	/	1.3	1.2	-1.7
Cc1c(C#N)c2ccccc2n1C	0.63	2	1.7	/	-2.3	3.2	2.2
CCOC(=O)COc1nc(-c2ccccc2)cc(-c2ccco2)c1C#N	0.71	1	0.4	5%	0.6	-111	-9.7
COc1ccc(C(=O)c2coc3ccc(OC(C)=O)cc23)cc1	0.62	-4	-6.1	6%	1.6	2.3	5.7
COc1ccc(NC(=O)c2nc[nH]c2C(=O)NCC(=O)OC(C)(C)C)cc1	0.68	-11	2.2	-2%	0.8	1.2	1.8
COc1cccc(NC(=O)Cc2csc(NC(=O)Nc3ccccc3OC)n2)c1	0.68	3	-0.6	2%	-0.5	1.6	-1.5
CCSCCOC(=O)C1=C(C)NC(=O)NC1c1ccc2c(c1)OCO2 (stereo unspecified)	0.71	-5	0.3	1%	0.1	6.1	-1.5
O=C(c1ccc([N+](=O)[O-])cc1)N1CCSC1c1ccccc1 (stereo unspecified)	0.74	0	0.1	14%	-0.2	3.8	11
COc1ccc(NS(=O)(=O)c2cccc(C(=O)N3CCN(Cc4cc(OC)ccc4OC)CC3)c2)cc1	0.65	-2	-0.4	-4%	-1.6	1.5	9.4
COc1ccc(C(=O)COC(=O)CCN=C2NS(=O)(=O)c3ccccc32)c(OC)c1	0.7	6	-0.3	-22%	3.4	-2.7	-4.7
Oc1cc(Br)ccc1C=Nc1ccc(N2CCCCC2)cc1	0.65	6	0.1	9%	37*	1.0	-1.4
CCOc1cc(C=O)ccc1OCC(=O)N1CCCC1	0.63	-6	0.3	-1%	2.1	4.3	-1.0
Cc1noc(C)c1C(=O)N1CCN(S(=O)(=O)c2cccs2)CC1	0.73	-2	-0.2	2%	5.1	2.1	-0.3
CCN1C(=O)[C@H]2[C@@H](c3ccc(C)cc3)N3C(=O)N(c4ccc(C)cc4)C(=O)[C@@]3(C)[C@H]2C1=O	/	2	-0.1	/	12	0.7	1.1
Cc1ccc(S(=O)(=O)N2[C@@H](c3ccccc3F)C(C(=O)O)=CC[C@H]2c2cccc(C)c2)cc1	/	-2	0.6	/	-4.8	5.3	-0.5
Cc1ccc(S(=O)(=O)NCCC(=O)NNC(=O)c2ccccc2O)cc1C	0.67	0	0.3	10%	17	-23	-0.2
COCCCN1CN(S(=O)(=O)c2cccs2)c2nc3ccccc3nc21	0.73	1	0.8	26%	-44	-6.6	2.6
CCCCc1nc(NCCN)c(C#N)c2c1CSC(C)(C)C2	0.75	12	-0.4	0%	-1.6	-15	3.0
Cc1ccnn1-c1ccc(C(=O)N2CCCN(S(=O)(=O)c3ccc(F)cc3)CC2)cc1	0.7	0	0.5	-13%	-0.5	-1.4	-3.8
N#CC1=C(S)N(c2ccccc2)C(c2ccc(-c3cccc(Cl)c3)o2)NC1=O (stereo unspecified)	0.67	6	0.1	1%	11	8.5	-5.3
CN1CCN(CCOCCOc2c(Cl)cc(Cl)cc2Cl)CC1	0.67	-3	0.7	/	1.6	7.1	1.4
Cc1cc(S(=O)(=O)N2CCCOC2CNC(=O)C(=O)NCc2cccs2)ccc1F (stereo unspecified)	0.68	0	0.2	1%	0.1	-0.6	1.4
COc1cccc(-n2nnc3c(=O)n(CC(=O)Nc4ccc(C)cc4)cnc32)c1	0.67	-3	0.9	-4%	-2.4	1.5	-1.8
CCNc1c([N+](=O)[O-])ncn1C	0.75	-1	-0.1	2%	-3.6	7.1	/
COc1ccc(NC(=O)CSc2nnc(C)n2Cc2ccccc2)cc1	0.69	-4	0.0	>13µM*	1.6	1.8	1.9
COc1ccccc1C(=O)COC(=O)CCN=C1NS(=O)(=O)c2ccccc21	0.68	-5	0.2	4%	4.5	-2.0	-1.2
O=C(Nc1nc(-c2ccccc2)c(C(=O)c2ccccc2)s1)c1ccc(S(=O)(=O)N2CCCC2)cc1	0.71	17	0.2	/	0.4	-0.1	-0.5

Other records.
Compound	Ecoli growth	B2AR ag	A1 inh	Vif TR-FRET	HNF4A DNA FP	UCH37 inh	LANA-H2A inh
COC(=O)[C@H](C(C)C)n1c(C)c(C(C)=O)c(C(C)=O)c1C	0.78	13	0.9	10%	-0.9	1.7	-3.3
O=C(O)/C(=C/c1ccco1)NC(=O)c1ccccc1	/	4	0.8	19µM*	-7.0	/	-2.0
CC1(C)NC(=O)N(CCOCCOc2ccccc2)C1=O	/	0	-0.4	-7%	0.7	/	5.7
C[C@@H]1CC=C[C@H]2[C@H]1C(=O)N(Cc1ccccc1)[C@H]2c1ccc(-c2ccc(F)cc2)cc1F	/	7	-0.5	/	3.4	3.5	-2.8
Cn1cc(C(CC(=O)O)C(=O)O)c2ccccc21 (stereo unspecified)	0.68	-2	-0.1	26%	-0.1	0.8	2.1
Cc1cc2[nH]c(=O)c(=O)[nH]c2cc1S(=O)(=O)Nc1cccc(C)c1C	0.74	2	-1.3	/	-1.2	-5.8	1.6
Nc1nnc(SCC(=O)OCC(=O)Nc2ccccc2)s1	0.68	-11	0.0	?	3.2	1.0	-0.2
O=C(Nc1ccc(F)cc1F)c1sccc1SCc1cccc(C(F)(F)F)c1	0.65	-4	0.1	-4%	-2.8	4.3	-1.5
CCOC(=O)c1c(C)c(C(=O)NCc2ccco2)c(C)n1C	0.69	-2	-0.3	9%	0.4	5.2	0.6
CCOc1ccc(C(=O)O)cc1OC	0.73	-6	0.0	1%	-2.9	2.0	-0.7
Cn1c(SCC(=O)NCc2cccs2)nnc1-c1ccc(O)cc1	0.67	14	-0.2	7%	-5.0	4.2	4.3
CSc1nc(-c2ccccc2)nc(C(C)C)n1	0.64	-2	-1.0	/	-2.8	-0.8	-1.5
CCOC(=O)NN1C(=O)c2ccccc2NC1c1ccccc1F (stereo unspecified)	0.68	-14	0.8	-7%	-2.2	-332	3.5
O=C1CCCc2c1cc(C(=O)NC1CCSC1=O)c(=O)n2-c1ccccc1 (stereo unspecified)	0.73	-7	0.8	9%	-5.4	-2.5	2.7
COc1cc(CNc2ccc3[nH]c(=O)[nH]c3c2)ccc1OCc1cccc(C)c1	0.74	17	-0.2	-2%	2.1	0.2	-2.9
CC(=O)Nc1ccc2nc3ccccc3nc2c1	/	1	-4.0	-6%	-13	/	2.7
Cc1cc[n+](CC(=O)c2ccc(NC(=O)c3ccccc3)cc2)c2ccccc12	0.65	-6	1.1	16%	5.6	6.3	-3.5
O=c1c2c(nc3nc(NCc4ccccc4Cl)[nH]n13)CCC2	0.67	/	1.9	-2%	/	-0.5	1.7
CCc1sc(C(=O)NCc2ccco2)cc1C	0.65	4	-0.2	6%	-4.8	0.9	3.8
COC(=O)c1[nH]c2ccc(F)cc2c1NC(=O)CCN1CCN(Cc2ccc3c(c2)OCO3)CC1	0.7	-11	/	12%	-1.4	-5.9	/
Cn1nnnc1SC(C(=O)Nc1cccc(C(F)(F)F)c1)c1ccccc1 (stereo unspecified)	0.66	1	0.8	-5%	0.5	5.4	/
O=C(COc1ccccc1F)NC1CCN(Cc2ccccc2)CC1	0.73	-3	?	-4%	-3.1	2.5	1.2
Cc1ccc(F)c(NC(=O)c2cncn2-c2ccccc2)c1	0.69	1	0.4	/	-1.1	3.2	-6.7
O=C(NNS(=O)(=O)c1cccc(Cl)c1)c1cc(-c2ccc(F)cc2)nc2ccccc12	0.72	1	0.6	3%	-3.8	-29	-4.2
COc1ccc(CNC(=O)c2csc3c2CCCC3)cc1	0.65	-5	-0.4	-8%	2.9	1.9	/

Screening results from PubChem BioAssay.
